HSV augment: HSV replication enhancement; HSV replication augmentation in cells, fold increase; maximum fold increase; actives 0.005% (n = 220,000);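 active = peak rise of 1.5-fold or more in the series; tested in PC3 cells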;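 note: first round at 10 µM; read as green reporter fluorescence; hits show the peak of a series up to 25 µM; 1 = signal of infected wells without compound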
GALR2 ag: activates the human galanin receptor 2; actives 0.48% (n = 140,000); activation, %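 (tested at 5 µM)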; GALR2-expressing cells, agonist activation read-out;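 active = above mean plus 3 SD of all compounds, about 5% in these data, not always enough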;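 note: 0% = vehicle buffer wells and 100% = reference agonist at full effect; tested in CHO reporter cells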
Target sequence (O43603 whole entry, looked up): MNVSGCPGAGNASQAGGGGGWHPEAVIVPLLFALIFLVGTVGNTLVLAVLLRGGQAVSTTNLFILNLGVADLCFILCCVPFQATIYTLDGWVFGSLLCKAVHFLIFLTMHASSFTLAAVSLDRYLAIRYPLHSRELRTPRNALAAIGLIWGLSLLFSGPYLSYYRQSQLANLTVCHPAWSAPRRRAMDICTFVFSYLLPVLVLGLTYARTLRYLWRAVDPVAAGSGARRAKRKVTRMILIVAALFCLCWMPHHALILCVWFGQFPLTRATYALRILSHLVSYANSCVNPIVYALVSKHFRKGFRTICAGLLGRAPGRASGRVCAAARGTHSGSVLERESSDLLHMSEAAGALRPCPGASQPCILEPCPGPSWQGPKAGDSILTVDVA
PKD1 kinase inh: PKD1 (human) kinase inhibition; actives 0.056% (n = 200,000); Q15139; inhibition, %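 (about 10 µM by stock and volumes)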; PKD1 kinase fluorescence polarization assay;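 active = inhibition of 50% or more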;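 note: controls were vehicle for no effect and a reference inhibitor for full effect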
INS promoter inh: TRM-6 insulin promoter activity inhibition; TRM-6 cells (human fetal islet line), insulin promoter-eGFP reporter, imaging; reporter expression induced with tamoxifen; inhibition, % at 2 µM; actives 0.9% (n = 130,000); AID 1273;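 active = inhibition above the mean plus 3 SD, with well images judged a real hit on visual review, cut at about 60% in these data, passing the limit was not always enough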
RGS16-Gao: RGS16-Galphao interaction regulator (human) | O15492+P09471 | bead-based flow cytometry RGS16-Galphao binding, fluorescence; actives lie on both sides | binding response (% of control), % at 10 µM | actives 0.38% (n = 220,000);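 active = below 25% or above 175%, edge rows of some plates excepted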;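 note: Galphao activated by GDP with aluminum fluoride before binding; 100% = wells without compound and 0% = beads without RGS; some results beyond the cut were filed as inactive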
Target sequence (O15492 whole entry, looked up): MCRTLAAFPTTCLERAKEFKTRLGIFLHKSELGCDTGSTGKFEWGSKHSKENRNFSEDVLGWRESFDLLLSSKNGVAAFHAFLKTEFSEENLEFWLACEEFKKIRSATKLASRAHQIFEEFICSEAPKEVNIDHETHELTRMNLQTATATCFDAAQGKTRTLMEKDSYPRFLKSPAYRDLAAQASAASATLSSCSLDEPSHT
Target sequence (P09471 whole entry, looked up): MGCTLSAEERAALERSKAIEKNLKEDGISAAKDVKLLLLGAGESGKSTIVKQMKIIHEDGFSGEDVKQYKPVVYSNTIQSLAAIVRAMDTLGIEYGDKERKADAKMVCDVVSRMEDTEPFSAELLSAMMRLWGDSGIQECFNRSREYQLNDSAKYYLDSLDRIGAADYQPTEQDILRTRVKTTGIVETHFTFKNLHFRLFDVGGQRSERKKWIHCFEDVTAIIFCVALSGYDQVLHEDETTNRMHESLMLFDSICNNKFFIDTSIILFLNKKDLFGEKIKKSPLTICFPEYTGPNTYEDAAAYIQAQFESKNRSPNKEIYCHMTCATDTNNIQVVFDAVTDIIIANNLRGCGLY
INS promoter inh cell count: further read-out of INS promoter inh, marked with its call; normalized cell count, %; measured here: cell count, toxicity; reference of the scale not given here;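 cells exposed to compound for 48 h; stained nuclei by imaging scaled within each plate; lower means fewer cells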
HSV augment primary fold: also measured in HSV augment; calls as there; fold increase; compound at 10 µM; measured here: primary screen fold increase 10 uM; tested in PC3 cells;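 GFP signal in the first replicate; 1 = infected wells without compound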
An asterisk follows results filed as active; i = inactive; / = not tested or not shown.

SMILES | HSV augment | HSV augment primary fold | GALR2 ag | PKD1 kinase inh | INS promoter inh | INS promoter inh cell count | RGS16-Gao
Cc1ccc(C2CC2C(=O)NN)cc1 (configuration not stated) | i | 1.09 | -0.9 | -16.8 | 0.0 | 90.7 | 97.6
CCN(CC)C(=S)Oc1ccc(Cl)cc1Cl | i | 1.01 | / | / | / | / | 102.5
Cc1nc(SCC(=O)NCc2ccco2)c2c(C)c(C)sc2n1 | i | 0.82 | -1.7 | -2.0 | 0.0 | 97.3 | 98.7
O=S(=O)(c1ccccc1)N1CCC2(CC1)CO2 | i | 1.12 | / | -2.6 | / | / | 100.7
Nc1cc(N)nc(SCc2ccccc2)n1 | i | 0.96 | -1.5 | -4.8 | 8.4 | 135.1 | 101.0
CCOC(=O)c1sc(NC(=O)CSc2nc3c(c(-c4ccc(OC)cc4)c2C#N)CCCC3)c(C#N)c1C | i | 0.98 | -0.9 | -2.7 | 27.9 | 46.4 | 131.7
Cc1ccc(NC(=O)NCC2CCN(Cc3cccc(Cl)c3)CC2)cc1Cl | i | 0.81 | / | 0.5 | / | / | 103.0
CCOC(=O)c1[nH]c2ccc(Br)cc2c1NC(=O)CCN1CCC(C(=O)OCC)CC1 | i | 0.84 | -0.7 | -3.9 | 0.0 | 137.3 | 97.3
COc1ccccc1NC(=O)Nn1cnnc1 | i | 0.86 | -1.0 | -6.4 | 50.0 | 86.9 | 73.4
c1ccc(C2=NNC(c3ccco3)=Nc3ccccc32)cc1 | i | 0.97 | / | 4.1 | 36.8 | 140.8 | 100.6
Cc1onc(-c2ccccc2)c1C(=O)NC(=S)NNC(=O)c1ccc(O)cc1 | i | 0.89 | 0.4 | 3.4 | 13.3 | 121.0 | 98.0
Cc1ccc(-c2csc(NC(=O)Cn3[nH]c(=O)c4ccccc4c3=O)n2)cc1 | i | 0.95 | / | 5.2 | / | / | 98.9
O=C(C1=C[C@@H](c2ccc(Br)cc2)C[C@@H](OCc2ccc(CO)cc2)O1)N1CCN(Cc2ccccc2)CC1 | i | 1.06 | / | -1.1 | / | / | 96.9
Cc1ccc(CN(C)C(=O)c2cc(COc3ccc(F)cc3Cl)on2)o1 | i | 0.89 | / | -3.9 | 33.3 | 93.7 | 101.4
CS(=O)(=O)c1ccc(C(=O)NC2CCCc3ccccc32)cc1 (configuration not stated) | i | 0.96 | / | -5.1 | / | / | 101.2
Cc1cc(C)c(C(=O)C[n+]2cccc(C(N)=O)c2)c(C)c1 | i | 1.15 | / | / | / | / | 98.2
Cc1ccc(N(CC(=O)NCc2ccc(F)cc2)C(=O)c2csnn2)c(C)c1 | i | 0.92 | / | -3.3 | / | / | 129.2
COc1ccc(O)c(/C=c2/sc3nc4cc(C)c(C)cc4n3c2=O)c1 | i | 0.98 | -1.6 | -0.9 | 11.1 | 105.3 | 73.5
CC(C)(C)C(=O)Nc1ccccc1C(=O)Nc1cccnc1 | i | 1.02 | -0.2 | -10.4 | 46.1 | 112.1 | 101.5
O=C(C1=C(O)C(=O)N(CCCN2CCOCC2)C1c1ccncc1)c1cc2ccccc2o1 (configuration not stated) | i | 1.03 | -1.0 | 6.0 | 46.4 | 110.0 | 94.0
COc1ccc(C(=O)C(C)OC(=O)c2cccc(S(=O)(=O)Nc3cc(Cl)c(OC)cc3OC)c2)cc1 (configuration not stated) | i | 0.81 | -0.9 | -2.6 | -42.9 | 30.3 | 78.8
COc1ccc2cc(S(=O)(=O)N3CCCCCC3)ccc2c1 | i | 1.15 | / | -8.0 | / | / | 100.2
CCCn1cc(NC(=O)c2cc3n(n2)C(C(F)(F)F)CC(c2ccccc2)N3)cn1 (configuration not stated) | i | 0.89 | 0.1 | -5.0 | -431.2 | 57.9 | 120.0
Cc1onc(-c2c(F)cccc2Cl)c1C(=O)N1CCc2ccccc2C1 | i | 0.953 | -1.2 | -2.8 | 12.9 | 87.4 | 106.3
CCCC[C@@H]1C[C@H]1[C@@H](NC(=O)c1cccs1)c1ccc(Cl)cc1 | i | 0.82 | -2.2 | -3.6 | 20.0 | 112.4 | 105.4
SMILES | HSV augment | HSV augment primary fold | GALR2 ag | PKD1 kinase inh | INS promoter inh | INS promoter inh cell count | RGS16-Gao
CC(C)Sc1nc2ccccc2n1CC(N)=O | i | 0.94 | -2.1 | -2.1 | / | / | 107.2
COc1ccccc1N1C(=O)CC(Sc2nccc(C)n2)C1=O (configuration not stated) | i | 1.04 | -1.7 | 2.5 | 13.5 | 178.9 | 104.6
CC1CCC2(CC1)Nc1ccccc1C(=O)N2c1ccccc1 (configuration not stated) | i | 0.95 | -2.0 | -1.9 | 0.0 | 148.9 | 93.0
COc1ccc(CC(NC(C)=O)C(=O)NC2CCN(C(=O)Nc3ccc(Cl)cc3)CC2)cc1OC (configuration not stated) | i | 0.9 | -1.0 | -6.4 | -11.4 | 34.3 | 100.0
COc1ccccc1C1c2[nH]c3ccccc3c2CCN1Cc1cnc(C)s1 (configuration not stated) | i | 1.02 | / | -10.7 | -73.9 | 54.4 | 82.1
O=C(NCc1ccc(F)cc1)C1(c2cccs2)CCOCC1 | i | 1.16 | -1.4 | -6.8 | / | / | 181.4
COc1ccc(NC(=S)N/C(=N/S(=O)(=O)c2ccc(C)cc2)c2ccccc2)cc1 | i | 0.96 | / | -3.7 | / | / | 100.1
O=C(Cc1ccccc1)Nc1nnc(-c2cccs2)s1 | / | / | 0.8 | -9.8 | -47.4 | 206.0 | 84.0
Cc1ccc(C(=O)N/N=C2\SCC(=O)N2c2cc(C)ccc2C)cc1 | i | 0.95 | -1.7 | -8.5 | 29.7 | 125.3 | 22.0*
O=C(CN1CCC(c2nc3ccccc3[nH]2)CC1)Nc1ccc2c(c1)OCO2 | i | 0.97 | -0.8 | 1.9 | 6.1 | 91.0 | 99.6
COc1ccc(NC(=O)CC2Oc3ccccc3NC2=O)cc1 (configuration not stated) | i | 1.13 | -0.4 | -1.6 | -14.3 | 144.5 | 97.7
O=C(N/N=C/c1ccc[nH]1)c1ccccc1[N+](=O)[O-] | i | 1.34 | -0.2 | 5.7 | -10.2 | 58.0 | 95.7
Cc1nc2ccc(S(=O)(=O)NC(C(=O)N3CCCC3)C(C)C)cc2s1 (configuration not stated) | i | 0.82 | -0.2 | -18.0 | / | / | 104.1
Cc1ccc2nc(NC(=O)c3ccc(Cn4cc(Cl)cn4)o3)sc2c1 | i | 1.03 | -1.4 | 0.7 | 50.0 | 136.5 | 97.5
CSc1nnc(-c2ccccc2N=Cc2c(C)[nH]n(-c3ccccc3)c2=O)c(=O)[nH]1 | i | 1 | 0.4 | -10.3 | -10.3 | 69.7 | 101.5
CCOc1cccc(-c2nnc3sc(COc4ccc(Cl)cc4)nn23)c1 | i | 1 | 0.5 | 5.5 | 12.5 | 119.9 | 86.3
COc1ccccc1CCc1nnc(CCC(=O)NC(C)Cc2ccsc2)o1 (configuration not stated) | i | 0.95 | / | -1.1 | / | / | 100.1
N#Cc1cn(-c2ccccc2)nc1C(=O)c1ccccc1 | i | 0.997 | 0.6 | -3.6 | -8.1 | 70.8 | 101.2
COc1ccc(NC(=O)c2ccco2)c(OC)c1 | i | 0.97 | -3.5 | 2.8 | 6.1 | 110.6 | 121.0
CCOC(=O)c1ccc(-n2c(CN(CC)CC)nc3ccc([N+](=O)[O-])cc3c2=O)cc1 | i | 0.9 | / | -3.0 | -55.0 | 97.3 | 102.4
COC(=O)CC1COc2ccccc2N1C(=O)c1ccc(Cl)cc1 (configuration not stated) | i | 1.04 | -1.4 | 4.1 | -45.2 | 108.6 | 87.1
CN(C)S(=O)(=O)c1ccc(Oc2ccccc2)cc1 | i | 0.87 | -1.8 | 0.1 | -475.0 | 42.2 | 104.8
CCOC(=O)Cc1cc(=O)n2[nH]c(-c3ccccc3)cc2n1 | i | 0.8 | -2.7 | 6.1 | -31.0 | 136.8 | 96.0
C=CCNc1nc(Nc2ccc(OC)cc2)nc(OC)n1 | i | 0.92 | -1.5 | -0.2 | 8.6 | 174.3 | 98.9
Cc1ccc(F)cc1NC(=O)Cc1nn(C)c(=O)c2ccccc12 | i | 1.08 | -0.4 | -7.5 | -7.9 | 168.9 | 103.4
SMILES | HSV augment | HSV augment primary fold | GALR2 ag | PKD1 kinase inh | INS promoter inh | INS promoter inh cell count | RGS16-Gao
O=C(COC(=O)c1ccc2c(c1)OCCO2)Nc1cc(Cl)ccc1Cl | i | 1.06 | 0.2 | -1.7 | -6.7 | 129.7 | 96.5
Cc1ccc(NC(=O)C(c2ccccc2)C2CCCC2)cc1 (configuration not stated) | i | 1.05 | -0.9 | -0.5 | -14.3 | 103.6 | 102.1
COc1cc(C(=O)NCc2ccc(C(=O)NCC(OC)OC)cc2)cc(OC)c1OC | i | 0.93 | / | 4.3 | 53.3 | 68.7 | 91.3
COc1ccccc1NC(=S)NNC(=O)c1ccccc1Br | i | 0.92 | -2.0 | -6.0 | -9.8 | 73.4 | 100.9
O=C(CCCOc1ccccc1)N1CCN(S(=O)(=O)c2cccs2)CC1 | i | 0.99 | -2.4 | -3.6 | -140.0 | 76.3 | 98.4
CCc1c(C)nc(SCC(=O)Nc2nc(-c3ccc(OC)cc3)cs2)[nH]c1=O | i | 0.96 | / | -5.0 | / | / | 66.6
Cc1cccc(/C=N\Nc2nnc(-c3ccccc3)c(=O)[nH]2)c1 | i | 0.89 | -0.2 | 6.5 | -19.5 | 95.9 | 98.9
CCOc1ccccc1NC(=S)N1C2CCC1CC(NC(=O)NC13CC4CC(CC(C4)C1)C3)C2 (configuration not stated) | i | 0.89 | -2.7 | -11.4 | -7.1 | 105.9 | 97.0
O=C(NC(=S)N1CCN(c2ccc(Cl)cc2[N+](=O)[O-])CC1)c1cccs1 | i | 1.01 | -0.8 | 1.3 | / | / | 93.3
Cc1cccc(NC(=O)Nc2cccc(C)n2)n1 | i | 0.92 | -2.1 | -1.8 | 3.0 | 119.2 | 91.3
CCOC(=O)c1c2c([nH]c(=S)c1C#N)CCCC2 | i | 0.8 | / | / | / | / | 98.0
CC1(C)Cc2nc3oc4c(=S)nc[nH]c4c3cc2CO1 | i | 0.86 | -0.7 | -4.2 | / | / | 96.0
COc1ccccc1-n1cc([C@@H]2C[C@H]3CN(c4ccccc4)C(=O)[C@]34CCCN24)cn1 | i | 1.11 | / | 3.2 | / | / | 110.3
COc1ccc(C(=O)C2CCCN(C(=O)C3CCOCC3)C2)c(C)c1 (configuration not stated) | i | 1.03 | / | -2.2 | / | / | 99.0
CCc1ccc2[nH]c(=O)c(C(c3nnnn3Cc3ccco3)N3CCC(C)CC3)cc2c1 (configuration not stated) | i | 0.83 | -0.4 | -6.4 | -32.1 | 100.0 | 208.2
O=C1c2cccc(OCc3ccc(F)cc3)c2CCN1Cc1ccc(F)cc1 | / | / | -1.1 | 3.7 | / | / | 102.6
C=CCNC(=S)Nc1ccc(Cl)cc1 | i | 1.09 | / | 2.4 | -23.5 | 129.9 | 103.3
Cc1cccc(CN2CCc3c(OCC(=O)NCc4ccco4)cccc3C2=O)c1 | i | 1.15 | -0.6 | 1.1 | / | / | 110.9
COc1cccc(CNCCNC(=O)c2nonc2N)c1 | i | 1.12 | -3.2 | -0.6 | -62.2 | 138.9 | 69.2
CCN(CC)c1nc(-c2ccccc2)nc2c1sc(=S)n2CC | i | 0.91 | / | -4.0 | 7.1 | 116.2 | 101.1
c1cncc(N=c2scc(-c3cccc4ccccc34)n2CCCn2ccnc2)c1 | i | 0.8 | 1.1 | -1.9 | -30.8 | 102.3 | 105.7

Molecules shown so far with an aryl thioether with sulfur outside any ring:
SMILES | HSV augment | HSV augment primary fold | GALR2 ag | PKD1 kinase inh | INS promoter inh | INS promoter inh cell count | RGS16-Gao
Cc1nc(SCC(=O)NCc2ccco2)c2c(C)c(C)sc2n1 | i | 0.82 | -1.7 | -2.0 | 0.0 | 97.3 | 98.7
Nc1cc(N)nc(SCc2ccccc2)n1 | i | 0.96 | -1.5 | -4.8 | 8.4 | 135.1 | 101.0
CCOC(=O)c1sc(NC(=O)CSc2nc3c(c(-c4ccc(OC)cc4)c2C#N)CCCC3)c(C#N)c1C | i | 0.98 | -0.9 | -2.7 | 27.9 | 46.4 | 131.7
CC(C)Sc1nc2ccccc2n1CC(N)=O | i | 0.94 | -2.1 | -2.1 | / | / | 107.2
COc1ccccc1N1C(=O)CC(Sc2nccc(C)n2)C1=O (configuration not stated) | i | 1.04 | -1.7 | 2.5 | 13.5 | 178.9 | 104.6
CSc1nnc(-c2ccccc2N=Cc2c(C)[nH]n(-c3ccccc3)c2=O)c(=O)[nH]1 | i | 1 | 0.4 | -10.3 | -10.3 | 69.7 | 101.5
CCc1c(C)nc(SCC(=O)Nc2nc(-c3ccc(OC)cc3)cs2)[nH]c1=O | i | 0.96 | / | -5.0 | / | / | 66.6

Random excerpt: 2 records from the list.
SMILES | HSV augment | HSV augment primary fold | GALR2 ag | PKD1 kinase inh | INS promoter inh | INS promoter inh cell count | RGS16-Gao
COc1ccc2cc(S(=O)(=O)N3CCCCCC3)ccc2c1 | i | 1.15 | / | -8.0 | / | / | 100.2
Cc1ccc(N(CC(=O)NCc2ccc(F)cc2)C(=O)c2csnn2)c(C)c1 | i | 0.92 | / | -3.3 | / | / | 129.2
